# gsp ag – agonists of gsp mutant (McCune-Albright syndrome) | gsp mutant cells, cAMP HTRF, 30 min; control for the full effect not named in the record | Potency, µM (highest dose often 76.9 µM), for inactives: at the highest dose activation (cAMP increase), most hits filed as activators | 340,000 compounds, 0.13% hits; active = well fitted activation curve with a large enough effect; inconclusive = small, poorly fitted or top-dose-only effect, or another doubt; inactive = no such curve, though single readings can be large or run the other way; cell line not stated here;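 note: phosphodiesterase inhibitor Ro 20-1724 added with compounds to block cAMP breakdown; potency is the fitted concentration of half-maximal effect; nearly all actives have a fitted effect of over 60% in size; about a fifth of the inactives were tested at one dose only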
#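 Cells in DMEM/10% FBS with G418 were pretreated with compounds in DMSO plus […] (300 uM stock) for 30 min at 37C. cAMP was measured by HTRF (cAMP-d2 plus anti-cAMP antibody-K) after 30 min at room temperature.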
# TRPML1 blocker – blocks the human TRPML1 channel; TRPML1-inducible cells, Ca2+ dye fluorescence, FDSS; active compounds read low; inhibition of EC80 agonist-evoked calcium signal; 390,000 compounds, 0.02% hits; AID 624415; Q9GZU1; activity change, negative = inhibition, % (no concentration beside the values); in the data active means activity change below about -50%; inconclusive means about -30% to -50%; inactive means above about -30%;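 note: stimulus is agonist 54-4 at its EC80 concentration; % is set by controls: 0 for no effect and ±100 for the full control effect; compound concentration not given in the record; the text of the record puts the active cut at -80%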
# Target sequence (Q9GZU1 whole entry, looked up): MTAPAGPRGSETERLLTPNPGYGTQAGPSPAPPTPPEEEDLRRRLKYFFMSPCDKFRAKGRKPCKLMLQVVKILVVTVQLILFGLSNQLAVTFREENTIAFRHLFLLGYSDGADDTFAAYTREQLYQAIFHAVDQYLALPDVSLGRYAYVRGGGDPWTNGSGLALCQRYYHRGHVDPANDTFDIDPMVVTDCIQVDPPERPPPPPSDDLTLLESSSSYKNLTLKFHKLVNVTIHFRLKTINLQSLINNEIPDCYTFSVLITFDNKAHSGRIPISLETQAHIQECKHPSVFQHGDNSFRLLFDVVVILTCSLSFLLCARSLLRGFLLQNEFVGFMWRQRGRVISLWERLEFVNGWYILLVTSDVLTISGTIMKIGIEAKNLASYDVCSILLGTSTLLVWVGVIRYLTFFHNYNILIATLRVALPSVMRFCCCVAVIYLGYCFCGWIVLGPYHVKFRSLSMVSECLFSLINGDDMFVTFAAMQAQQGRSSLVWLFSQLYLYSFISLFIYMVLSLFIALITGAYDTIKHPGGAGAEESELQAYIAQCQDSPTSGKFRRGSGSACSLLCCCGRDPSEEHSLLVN
#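 Calcium fluorescence in TRPML1-DL cells induced overnight with Tet: a 110 s read after compound pin addition, then a 110 s antagonist read after challenge with 54-4 at 4 uM final (EC80).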
# gsp antag – gsp mutant antagonism. AID 624288. Potency, µM (series often up to 76.9 µM), for inactives: at the highest dose activity change, negative = inhibition, most hits filed as inhibitors. gsp-mutant cells, cAMP HTRF, 30 min; control for the full effect not named in the record. 340,000 compounds, 0.4% hits; active = falling curve of any shape with a large fitted effect; inconclusive = falling curve, mostly with a smaller effect; inactive = flat or rising curve; cell line not stated here;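 note: intracellular cAMP measured with PDE inhibitor Ro 20-1724 present during compound exposure; potency is the fitted concentration of half-maximal effect; % is set by controls: 0 for no effect and ±100 for the full control effect; nearly all actives have a fitted effect of over 65% in size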
#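 HTRF cAMP read-out (cAMP-d2 plus anti-cAMP antibody-K in lysis buffer, 30 min RT). Before lysis, cells are exposed to compounds with […] for 30 min at 37C in DPBS containing Ca/Mg, BSA and Tween 20.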
# ClpP mod – qHTS Assay for Activators of ClpP; AID 651965, 2013; purified B. subtilis ClpP, FRET peptide cleavage, 20 min; ATP-dependent Clp protease proteolytic subunit (Bacillus subtilis (strain 168)), P80244; Potency, µM (highest dose often 57.5 µM), for inactives: at the highest dose activity change, negative = active; 340,000 compounds, 1.9% hits; active = well fitted falling curve with a large enough effect; inconclusive = small, poorly fitted or top-dose-only effect; inactive = no such curve, though single readings can be large or run the other way; note: potency is the fitted concentration of half-maximal effect; the source files actives as falling curves though it sought activators and does not explain the sign; nearly all actives have a fitted effect of over 65% in size; many hits overshoot -100%
# Target sequence (P80244 whole entry, looked up): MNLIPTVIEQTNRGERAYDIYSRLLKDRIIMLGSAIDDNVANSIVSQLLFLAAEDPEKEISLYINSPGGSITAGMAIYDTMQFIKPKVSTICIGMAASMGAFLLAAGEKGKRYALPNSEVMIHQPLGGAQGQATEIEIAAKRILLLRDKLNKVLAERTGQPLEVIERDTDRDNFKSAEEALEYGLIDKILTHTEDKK
#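 Buffer: 100 mM Tris/HCl pH8, 100 mM KCl, 0.05% low protease BSA, 2.5% glycerol, 0.01% Tween-20. ClpP 10 microg/mL final; 20 min RT; delta FRET normalized to ADEP and DMSO controls.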
# Menin-MLL FL inh – inhibitors of human menin-MLL interaction, wild-type MLL peptide; FP activity change, % at 61.4 µM; AID 1766; Fluorescence polarization, fluorescein-MLL peptide displacement from menin; 290,000 tested, under 10 active; inconclusive = falling polarisation curve, or a change in total fluorescence; inactive = total fluorescence flat and polarisation flat or rising; no compound was filed as active; the % refers to the polarisation; negative = inhibition;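 note: % of control where 0% means no effect; inhibitors lower the polarisation; unlabelled MLL peptide was the positive control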
# TRPML1 agonist – activates the human TRPML1 channel | TRPML1-expressing cells, Ca2+ dye fluorescence, FDSS; host cell line not named in the record; reference of the full effect not given here | activation, % (concentration not given with the values) | 410,000 compounds, 0.12% hits | Q9GZU1; in the data active = activation above about 50%; inconclusive = about 30% to 50%; inactive = below about 30%; note: 0% is about no effect; the text of the record puts the active cut at 80%
#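 Tetracycline-induced TRPML1-DL cells are seeded and incubated overnight before loading with a no-wash Ca2+ dye and quencher. Agonist activity is taken from the 110 s fluorescence read following compound pin-transfer on an FDSS, before EC80 54-4 challenge.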
# * marks the source's active call; other numbers are inactive results; u = inconclusive; x = not tested or not shown; & = joins results of further samples; [ ] = another dose, or the depositor's remark.
SMILES,gsp ag,TRPML1 blocker,gsp antag,ClpP mod,Menin-MLL FL inh,TRPML1 agonist
CCN(CC)CCNC(=O)c1ccc(NC(=O)CC(NC(=O)c2ccccc2Cl)c2ccccc2)cc1 (configuration not stated),-6.4%,-0.7,2.4%,0.7%,x,0.2
Cc1cc(-c2sccc2C)nc(-n2cccc2)n1,0.6%,0.3,-10.6%,-6.0%,2.7,1.7
COc1ccc(CCNS(=O)(=O)c2csc(C(N)=O)c2)cc1OC,u,1.2,9.6%,x,x,-0.3
C(=N\N1CCN(Cc2ccccc2)CC1)/c1ccc(-c2ccccc2)cc1,3.6%,-14.8,6.8%,-1.9%,0.4,0.6
Cc1ccc(S(=O)(=O)N(C)C[C@H]2Oc3cc(Br)ccc3S(=O)(=O)N([C@H](C)CO)C[C@H]2C)cc1,u,-3.8,x,1.4%,x,1.2
CCN(C(=O)COC(=O)/C(C#N)=C/c1ccc(N(C)C)cc1)C1CCS(=O)(=O)C1 (configuration not stated),10.1%[15.4 µM],49.3,9.1%,0.2%,x,1.1
CN1CCN(CC(=O)c2cc(C(C)(C)C)c(O)c(C(C)(C)C)c2)CC1,0.6%[15.4 µM],-7.8,9.3%,0.5%,-0.1,0.6
O=C(Cn1c(CCCO)nc2ccccc21)Nc1ccccc1-c1ccccc1,-15.1%,35.0,-0.3%,x,6.1,0.4
COc1ccc(S(=O)(=O)Nc2cc(C(=O)NCCCN3CCOCC3)ccc2N2CCOCC2)cc1,-12.2%,-8.9,3.8%,-5.2%,-2.5,0.2
Cc1ccc(S(=O)(=O)/N=C2\CN(C)C(=O)N2C)cc1,-15.9%,-14.7,9.5%,0.1%,0.9,-0.5
O=C(Nc1nc2cc3c(cc2s1)OCO3)C1=COCCO1,-10.0%,-8.4,-7.6%,-5.1%,-3.3,0.0
Cc1cc(C)c(C#N)c(SCSCc2ccccc2)n1,-18.0%,6.4,-3.8%,-2.6%,1.1,3.1
CCOc1cc(NC(=S)NCCCN2CCOCC2)c(OCC)cc1NC(=O)c1cccc(F)c1,-9.3%[15.4 µM],-8.2,4.2%,x,4.4,0.4
Cc1ccc2c(c1)N(C(=O)CCC(=O)Nc1ccccc1Br)CC(C)O2 (configuration not stated),3.6%,-3.6,-13.5%,0.3%,-3.5,0.3
CCCCn1c(N)c(N(CC(C)C)C(=O)c2ccc(-c3ccc(C(C)=O)cc3)o2)c(=O)[nH]c1=O,10.4%,6.5,-8.1%,u,x,0.4
O=C(CN(CC1CCCO1)C(=O)c1nsc(Cl)c1Cl)NC1CCCC1 (configuration not stated),-0.5%,-0.8,15.1%,-1.1%,1.6,4.1
CNC(=O)CCCc1nc(-c2ccccc2Cl)no1,-1.7%,-6.7,8.0%,-1.6%,2.1,3.5
CCOc1ccc(NC(=O)CN(C)C(=O)c2cc(S(=O)(=O)N3CCCCC3)ccc2C)cc1OCC,-46.4%[inhibitor],-14.5,5.8%,-0.4%,x,-0.7
Cc1cc(=O)oc2cc(O[C@@H]3O[C@H](CO)[C@H](O)[C@H](O)[C@H]3O)ccc12,-8.1%[15.4 µM],-5.8,13.9%,1.1%,1.0,-0.3
O=C(NCc1cccnc1)c1ccc(COc2ccc(Cl)cc2)cc1,-31.3%[inhibitor],9.7,u,-1.4%,-1.0,1.8
COc1ccc(C(=O)Cn2nnc(-c3ccccc3NC(=O)c3ccco3)n2)cc1,-9.4%,1.3,-13.8%,u,7.6,0.4
Cc1ccsc1/C=N/NC(=O)Cc1cccn1C,-42.4%[inhibitor],16.9,6.0%,-2.8%,5.7,-0.3
O=C(NCC1CCCO1)c1onc(CSc2ccc(F)c(F)c2)c1C(=O)O (configuration not stated),x,-6.2,-6.7%,0.9%,-1.9,-0.3
COC(=O)c1cc(S(=O)(=O)N2CCN(c3ccc(C(C)=O)cc3)CC2)cn1C,21.0%,-6.5,18.7%,-10.0%,x,1.0
Cc1ccc(CN2CCN(C(=O)/C=C/[C@H]3O[C@@H](n4cc(C)c(=O)[nH]c4=O)C[C@@H]3O)CC2)cc1,x,28.5,x,-0.2%,x,-0.2
# Next part
SMILES,gsp ag,TRPML1 blocker,gsp antag,ClpP mod,Menin-MLL FL inh,TRPML1 agonist
Cc1ccc(OCCCCn2ccnc2)c([N+](=O)[O-])c1,-12.3%,-2.2,-1.6%,0.2%,5.4,-0.3
COc1ccc(NC(=O)CCS(=O)(=O)c2ccc3c(c2)CCCN3C(C)=O)cc1,-23.1%,-4.8,5.1%,-1.1%,1.1,-0.7
N/C(Cc1nc2ccccc2s1)=N\O,-8.6%,-26.2,0.1%,x,-0.8,0.4
CN(C)S(=O)(=O)c1cccc(NC(=O)COC(=O)C2(c3ccccc3F)CCCC2)c1,13.9%[15.4 µM],10.0,u,0.3%,1.5,0.1
C=C1CCN(c2ccc(C(=O)O)cc2[N+](=O)[O-])CC1,-10.3%,-11.0,-17.1%,1.0%,x,0.0
O=C1CC(N2CCOCC2)C(=O)N1CCN1C(=O)CC(N2CCOCC2)C1=O (configuration not stated),2.6%,-7.1,9.2%,-4.2%,0.4,3.6
Cc1c(CN2CCCCC2C)c(=O)n(-c2ccccc2)n1C (configuration not stated),-58.1%[inhibitor],-8.2,5.3%,-1.3%,0.3,0.1
COc1ccc(C2(CNC(=O)CCC(=O)O)CCCC2)cc1,14.2%,1.9,0.1%,0.4%,5.8,1.7
CCOP1(=O)OCC2OC(n3cnc4c(N)ncnc43)C(O)C2O1 (configuration not stated),112.4%[15.4 µM],-5.6,30.6%[activator],x,4.9,0.5
CCCCN(CC)CCCNC(=O)c1cn(CC)c2ccc(S(=O)(=O)N3CCc4ccccc4C3)cc2c1=O,-2.2%[15.4 µM],9.9&-3.6,-10.1%,-3.4%&-3.7%,-1.4,-0.5&-0.9
CCCOc1ccc(C(=O)C(CCC(CNCC)C(=O)c2ccc(OCCC)cc2)CNCC)cc1 (configuration not stated),-85.8%[inhibitor],-5.2,18.1%,0.0%,-0.6,1.8
Cn1cnnc1Sc1ccc(/C=C(\CC(=O)O)c2nc3ccccc3s2)cc1[N+](=O)[O-],14.9%[15.4 µM],9.3,-3.1%,x,-1.1,0.0
CC(C)(C)c1ccc(C(=O)C2CCCN(C(=O)c3ccccn3)C2)cc1 (configuration not stated),u,-7.7,-22.0%,3.3%,-2.7,-0.9
COc1ccc(-n2ncc3c2CC(C)(C)CC3NC(=O)c2cn[nH]c2)cc1 (configuration not stated),17.7%[15.4 µM],0.1,-6.7%,-2.2%,x,1.2
CC(=O)Nc1ccc(NC(=O)CNC(=O)c2cccc(C)c2)cc1,-13.8%,0.6,4.9%,x,-13.4,0.2
CCCCSCCCNC(=O)CS(=O)Cc1nc(-c2cccc(C)c2)oc1C (configuration not stated),8.6%,4.3,-17.1%,-2.1%,2.9,0.7
Cc1ccc(S(=O)(=O)N2CCN(C(=O)CCC(=O)NCCc3ccc(F)cc3)CC2)cc1,7.3%[15.4 µM],10.3,3.0%,x,-3.3,-0.9
Cc1cc(C)cc(NC(=S)N2CCN(c3ccccn3)CC2)c1,-24.1%,-5.9,-0.1%,-5.2%,-2.9,-0.2
COc1ccc(NS(=O)(=O)c2ccc3nc(COc4ccc5ccccc5c4)[nH]c3c2)cc1,-2.1%,0.7,-5.5%,u,-6.1,-0.3
Cc1cccc(NC(=O)CCN2C(=O)c3ccccc3C2=O)n1,4.2%,0.2,-4.6%,0.6%,3.0,-0.4
O=C(c1ccc(NC(=S)NCc2ccc(Cl)cc2)cc1)N1CCCCC1,u,-8.8,-1.7%,-0.1%,4.4,6.0
Cc1ccc(CCNC(=O)c2ccc(CSc3nc4ccncc4n3Cc3ccc(F)cc3)cc2)cc1,x,1.0,x,-5.4%,x,1.0
CCc1ccccc1Oc1coc2cc(O)ccc2c1=O,u,-6.0,-14.8%,3.7%,3.7,2.9
COCc1ccc(C(=O)NC2CCSc3ccccc32)cc1 (configuration not stated),-1.8%[15.4 µM],-8.9,0.9%,x,0.9,-0.5
COc1ccc(C)cc1S(=O)(=O)N1CCCCCC1,u,x,-2.2%,-0.4%,-1.0,x
# More compounds.
SMILES,gsp ag,TRPML1 blocker,gsp antag,ClpP mod,Menin-MLL FL inh,TRPML1 agonist
O=C(COC(=O)C1CCN(c2ccc(C(F)(F)F)cn2)CC1)c1ccccc1Cl,2.2%[15.4 µM],41.8,-3.7%,x,x,2.3
CC(O)Cc1cn(CC(=O)N2CCNCC2)nn1 (configuration not stated),x,-7.7,1.9%,-1.7%,-5.3,0.9
COc1cc2[nH]c(C(=O)N3CC(C)OC(C)C3)cc2c(OC)c1OC (configuration not stated),-33.1%[inhibitor],15.6,-4.6%,x,-8.3,0.6
COc1cc2c(cc1NC(=O)COc1ccc(Br)cc1)oc1ccccc12,x,1.4,x,u,x,0.1
CSC1=NCCN1C(=O)C12CC3CC(CC(C3)C1)C2,-10.6%[15.4 µM],5.7,11.2%,x,0.2,-0.2
CCc1ccc(NC(=O)CSc2nc(-c3cccc(OC)c3)nc3c2Cc2c(CO)cnc(C)c2O3)cc1,x,4.7,x,-7.7%,x,0.2
CC1CCN(S(=O)(=O)c2ccc(NC(=O)C3CSC4(C)CCC(=O)N34)cc2)CC1 (configuration not stated),-42.1%[inhibitor],-5.7,5.7%,28.2µM*,x,0.7
Cc1ccc(NC(=O)CCNS(=O)(=O)c2ccccc2F)cc1S(=O)(=O)N1CCOCC1,-38.7%[inhibitor],13.7,5.5%,0.7%,x,-0.7
O=C(CSc1n[nH]c(-c2ccccn2)n1)Nc1ccc(F)cc1,2.6%,-3.5,-6.9%,x,-11.9,0.4
CC(C)Oc1ccc(S(=O)(=O)N2CCOCC2)cc1NC(=O)Cc1c(F)cccc1Cl,2.7%,5.1,-17.4%,0.4%,x,1.0
Cn1c(SCC(=O)Nc2ccc(Br)cn2)nnc1C1CC1,u,0.2,8.3%,-0.4%,2.2,-0.3
CC1CCCN(CCC(=O)Nc2ccccc2)C1 (configuration not stated),-9.9%[15.4 µM],9.6,10.5%,3.3%,-2.0,-1.3
CCOc1ccc(S(=O)(=O)NCc2cccnc2)cc1C,-16.6%,7.7,13.4%,x,-1.1,-0.4
COC(=O)C1=CN(C(C)C)C=C(C(=O)OC)C1c1cccc(OC)c1,-37.5%[inhibitor],6.4,2.4%,30.8%,0.8,2.7
Cc1nnc(NCc2ccccc2)c2c1nnn2Cc1ccccc1Cl,x,18.8,x,2.7%,x,-0.8
N#Cc1c(NC(=O)C2CC(Cl)=CCC2C(=O)O)sc2c1CCCCC2 (configuration not stated),-9.7%[15.4 µM],-3.1,x,x,1.4,0.1
COCCCn1c(=NC(=O)c2ccncc2)c(C#N)cc2c(=O)n3cccc(C)c3nc21,u,-5.7,-9.7%,0.708µM*,u,0.2
CCC1Sc2ccc(S(=O)(=O)CCC(=O)Nc3ccc(C(=O)OC)cc3)cc2NC1=O (configuration not stated),-5.2%,-16.7,-5.3%,-1.0%,-0.8,0.8

# High-throughput results from PubChem BioAssay.
